# FGF22 binding – shifts melting point of recombinant human FGF22 | recombinant FGF22 thermal shift, SYPRO orange fluorescence; percent of sucrose octasulfate shift, DMSO zero | calls only at 9.99 µM | 1.5% of 340,000 active | AID 651658;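 active = melting point raised past a set limit in the mean and every replicate; inconclusive = no clear call; three in four hits are not shown here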
# Target sequence (Q9HCT0 whole entry, looked up): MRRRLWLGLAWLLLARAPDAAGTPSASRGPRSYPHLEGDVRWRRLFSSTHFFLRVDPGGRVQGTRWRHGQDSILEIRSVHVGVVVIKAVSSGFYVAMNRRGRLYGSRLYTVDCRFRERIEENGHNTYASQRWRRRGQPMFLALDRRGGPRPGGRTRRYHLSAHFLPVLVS
# T cruzi inh – T. cruzi replication inhibition; 1.4% of 300,000 active; T. cruzi beta-gal in NIH3T3, luminescence, 90 h; inhibition, % (concentration not given with the values);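 active = mean inhibition across valid replicates above about 55%, limit read from the data; inconclusive = mean below that limit but half or more replicates reach it; inactive = mean below it, under half of replicates reach it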;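 note: signal also drops with host cell toxicity which is not excluded here; 0% = plate median of DMSO wells and 100% = zero luminescence signal; higher percent means less beta-gal luminescence so fewer parasites; stock transfer was 50 nL into about 50 µL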
# RanGTP-Imp inh – disruptors of Ran-importin-beta complex formation – biochemical, FRET, CFP-Ran, YFP-importin-beta, homogeneous, primary screen; AID 2216; cell-free CFP-Ran/YFP-importin-beta FRET ratio; inhibition, % (no concentration beside the values); 1.1% of 300,000 active;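 active = most replicates above 15%; inconclusive = exactly half above 15%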;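 note: 0% = DMSO wells and 100% = Ran loaded with GDP instead of GTP; wells of about 40 µL received 100 nL stock; the first replicate is given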
# ALR H2O2 inh – human ALR oxidase inhibition via reduced H2O2; purified ALR, DTT oxidation, H2O2 HRP-luminol luminescence; inhibition, % (test concentration not listed); 3.8% of 290,000 active; AID 485317;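 active = mean and each replicate at 75% or more; inconclusive = only one of the two met; inactive = neither met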;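 note: stock transfer was 7.5 nL into about 7.5 µL; 0% = neutral wells and 100% = wells with inactivated enzyme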
# Target sequence (P55789 whole entry, looked up): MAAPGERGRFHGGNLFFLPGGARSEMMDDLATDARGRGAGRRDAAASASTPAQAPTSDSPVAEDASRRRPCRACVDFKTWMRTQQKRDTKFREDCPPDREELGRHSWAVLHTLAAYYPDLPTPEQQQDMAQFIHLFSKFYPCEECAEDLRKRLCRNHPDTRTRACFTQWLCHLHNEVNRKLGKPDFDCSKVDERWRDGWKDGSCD
# Calb FLC – C. albicans growth modulation with fluconazole; AID 1979; C. albicans CaCi-2 (fluconazole-resistant clinical isolate) + fluconazole, Alamar Blue growth, 48 h; growth inhibition, % (test concentration not listed); 0.57% of 300,000 active;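 active = most replicates above 75%; inconclusive = exactly half above 75%; inactive = most below 75%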;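 note: all wells also contain fluconazole at 8 µg/ml as a sub-toxic cotreatment; 0% = median of DMSO wells and 100% = median of geldanamycin control wells; wells of about 8 µL received 7.5 nL stock; the first replicate is given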
# MLL AF4-AF9 inh – inhibitors of human MLL-AF4/AF9 interaction; P42568; AlphaScreen, biotin-AF4 peptide binding to FLAG-AF9; inhibition, % at 10 µM; 0.47% of 350,000 active;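 active = every replicate reaching a set inhibition limit, whatever the replicate mean, cut at about 25% in these data; inconclusive = mean inhibition reaches that limit but some replicates miss it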;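 note: 0% = plate neutral control median and 100% = total signal loss; the record names both 10 and 1 µM as test concentration; the first replicate is given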
# Target sequence (P42568 whole entry, looked up): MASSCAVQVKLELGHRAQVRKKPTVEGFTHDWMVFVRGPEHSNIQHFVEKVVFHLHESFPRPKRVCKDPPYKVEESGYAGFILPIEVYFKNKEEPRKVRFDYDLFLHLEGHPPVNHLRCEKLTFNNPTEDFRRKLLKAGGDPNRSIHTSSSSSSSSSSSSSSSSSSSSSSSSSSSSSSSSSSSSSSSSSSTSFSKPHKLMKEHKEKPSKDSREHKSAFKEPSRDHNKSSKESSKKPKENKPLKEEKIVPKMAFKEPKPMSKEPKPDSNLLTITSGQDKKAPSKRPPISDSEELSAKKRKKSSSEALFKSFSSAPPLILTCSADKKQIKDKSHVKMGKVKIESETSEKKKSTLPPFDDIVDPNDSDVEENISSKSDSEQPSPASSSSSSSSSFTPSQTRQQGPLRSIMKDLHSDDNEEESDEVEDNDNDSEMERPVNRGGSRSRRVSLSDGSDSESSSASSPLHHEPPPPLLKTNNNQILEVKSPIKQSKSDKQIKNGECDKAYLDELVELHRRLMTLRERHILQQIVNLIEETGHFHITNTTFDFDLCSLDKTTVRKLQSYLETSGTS
# Ecoli rRNA inh – selective bacterial rRNA inhibition in E. coli; GFP signal change (wild-type ribosome), % (test concentration not listed); E. coli WT GFP vs humanized-ribosome RFP mutants, fluorescence, 24 h; stronger effect = lower value; DMSO median 0, no signal -100; 1.6% of 350,000 active; AID 720706;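 active = significant combined selectivity score with lowered wild-type GFP, culture density cut under 30%, mutant RFP and density less affected; inactive = any of these conditions unmet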; note: one replicate is shown; some compounds called inactive have numbers as strong as hits
# Beta cell apopt – beta cell apoptosis inhibition | AID 435005 | INS-1E cytokine-induced death, ATP luminescence, 48 h; percent of positive-control rescue, neutral wells zero | protection from apoptosis, % (test concentration not listed) | 0.8% of 300,000 active;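 active = all replicates at 75% or more, or half of them and the mean; inconclusive = half reach 75% but not the mean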;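 note: 0% = cytokine-treated negative control wells and 100% = positive control rescue; higher means more ATP so stronger rescue from cytokine killing; wells of about 40 µL received 100 nL stock; the first replicate is given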
# Ecoli rRNA inh OD600 – recorded beside Ecoli rRNA inh, whose call it bears; OD600 change, %; measured here: OD600 growth;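 optical density of the mix in the first replicate; 0 = DMSO median and -100 = no signal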
# Ecoli rRNA inh RFP – second read-out of Ecoli rRNA inh, no call of its own (marks repeat the call); RFP signal change, %; measured here: RFP humanized mutant strains;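 first replicate; 0 = DMSO median and -100 = no signal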
# Numbers without * were called inactive; i = inactive; ? = inconclusive; · = no result given. Only part of the results is shown, so the mix of outcomes need not match the whole.
SMILES,FGF22 binding,T cruzi inh,RanGTP-Imp inh,ALR H2O2 inh,Calb FLC,MLL AF4-AF9 inh,Ecoli rRNA inh,Ecoli rRNA inh OD600,Ecoli rRNA inh RFP,Beta cell apopt
CCC/C=C1/CCCOC(C(=O)NCCN2CCOCC2)(C(F)(F)F)C1 (centres undefined),i,0,2.8,-6,-4,-2.8,10,8,11,-15
COc1ccc(C(CC(=O)NC(C)(C)C)n2cccc2)cc1 (centres undefined),·,4,-2.0,3,0,·,·,·,·,-8
COc1ccc(-c2ccc(CCC(=O)O)n2NC(=O)c2cccs2)cc1,·,-18,0.7,56,14,·,·,·,·,4
COc1ccc(C(=O)Nc2cccc(C(C)=O)c2)cc1OC,·,-3,-4.0,-5,-4,·,·,·,·,-9
CCCCn1c(N)c(N(CCOC)C(=O)COc2ccc(Cl)cc2)c(=O)[nH]c1=O,i,-1,-3.7,-10,-10,-1.7,5,13,-5.8,-5
CCC(C)c1ccc(O)c(NC(=O)c2cccnc2)c1 (centres undefined),·,-11,6.9,95*,16,·,·,·,·,-5
Cc1ccc2nc(NCCCO)[nH]c2c1,·,-21,0.4,97*,6,·,·,·,·,-2
Cc1cccc(CSCCNC(=O)Nc2ccccc2)c1,·,2,?,-6,-8,·,·,·,·,7
COCCN(CCOC)S(=O)(=O)c1ccc(C(=O)Nc2nc(-c3ccccc3)c(C(=O)c3ccccc3)s2)cc1,i,22,2.1,-4,4,5.2,4,7,1.8,2
Cc1ccccc1NC(=O)CCC(=O)OCC(=O)c1cccc([N+](=O)[O-])c1,i,-15,0.2,32,-6,-1.3,16,-2,-0.7,-4
CN1CCc2c(sc(N)c2C(N)=O)C1,·,-11,86*,-21,-1,·,·,·,·,0
Cc1oc(-c2cccc(Cl)c2)nc1CN(C)C1CCOC1 (centres undefined),i,-8,-9.0,-5,-1,4.2,7,7,1.8,-4
COC(=O)C(CC(C)C)NC(=O)C(Cc1ccccc1)NC(=O)C1CCCN1C(=O)OC(C)(C)C (centres undefined),i,8,-3.3,-2,33,-0.5,8,14,-1.0,0
Oc1ccc(Cl)cc1C1=Nc2ccccc2N=C(c2ccco2)C1,i,-8,0.5,11,-1,7.6,-13,-6,-3.3,·
CCN1C(=O)[C@@H]2[C@@H](c3ccc(-c4ccc(Cl)c(Cl)c4)c(OC)c3)N3CCC[C@@]3(C(=O)OC)[C@@H]2C1=O,i,·,·,·,·,2.1,-7,-9,24,-2
COC(=O)c1cn(CC(=O)NCc2cccs2)c2ccccc12,·,11,2.4,2,10,·,·,·,·,-3
Cc1ccc(-c2c(C(=O)N/N=C/c3ccoc3)nnn2-c2nonc2N)cc1,i,-8,2.9,0,11,-11,-2,0,1.8,-1
COc1cc(C2NC(=O)CS2)cc(OC)c1OC (centres undefined),·,-3,4.1,·,4,·,·,·,·,-5
Cc1cc(=O)n2[nH]c(-c3ccc(C(C)(C)C)cc3)cc2n1,·,63*,6.3,-3,25,·,·,·,·,3
CCN(CC(=O)Nc1ccc2c(c1)OCCO2)S(=O)(=O)c1ccc(C)cc1,·,-21,-1.9,3,-19,·,·,·,·,-2

# Sorted by length of the SMILES (ascending): some entries from above
SMILES,FGF22 binding,T cruzi inh,RanGTP-Imp inh,ALR H2O2 inh,Calb FLC,MLL AF4-AF9 inh,Ecoli rRNA inh,Ecoli rRNA inh OD600,Ecoli rRNA inh RFP,Beta cell apopt
CN1CCc2c(sc(N)c2C(N)=O)C1,·,-11,86*,-21,-1,·,·,·,·,0
Cc1ccc(-c2c(C(=O)N/N=C/c3ccoc3)nnn2-c2nonc2N)cc1,i,-8,2.9,0,11,-11,-2,0,1.8,-1
CCCCn1c(N)c(N(CCOC)C(=O)COc2ccc(Cl)cc2)c(=O)[nH]c1=O,i,-1,-3.7,-10,-10,-1.7,5,13,-5.8,-5

# Further compounds follow:
SMILES,FGF22 binding,T cruzi inh,RanGTP-Imp inh,ALR H2O2 inh,Calb FLC,MLL AF4-AF9 inh,Ecoli rRNA inh,Ecoli rRNA inh OD600,Ecoli rRNA inh RFP,Beta cell apopt
CCn1c(=O)c2cc(C(=O)Nc3cc(C)on3)sc2c2ccccc21,i,-10,?,6,2,3.2,8,13,0.1,4
Cc1cc(C(F)(F)F)nc(SCC(=O)Nc2c(C)n(C)n(-c3ccccc3)c2=O)n1,i,2,-0.6,-5,-5,-1.4,·,·,·,·
Cc1ccc(S(=O)(=O)N(CC(=O)NCCSCc2ccco2)c2ccc(F)cc2)cc1,·,-8,-0.6,-2,0,·,·,·,·,0
Cc1cc(C)c(S(=O)(=O)N2CCN(CCO)CC2)c(C)c1,i,-4,-0.6,-1,-5,1.8,0,2,0.7,-1
Cc1[nH]nc2c1/C(=N/O)CC(c1ccccc1)C2 (centres undefined),·,-9,-0.7,-4,8,·,·,·,·,-11
O=C(CCN1C(=O)c2ccccc2S1(=O)=O)NCc1ccc(F)cc1,i,-6,1.1,·,0,-19,4,16,2.0,·
c1ccc(Cn2nnc3c(NCC4CCCO4)nc(C4CC4)nc32)cc1 (centres undefined),·,15,3.5,-1,7,-0.3,·,·,·,4
O=C(c1cc2nc(-c3ccccc3)cc(C(F)(F)F)n2n1)N1CCOCC1,i,-12,-1.1,4,2,-1.9,5,5,0.5,-14
Cc1ccc(SCCc2cc[n+](CC(=O)c3ccccc3)cc2)cc1,i,-27,-0.1,67,14,10,21,11,7.1,-12
O=C(Nc1ccc(Br)cc1)c1cccc(NC(=O)C2C3CC4OC(=O)C2C4C3)c1 (centres undefined),·,3,?,0,24,·,·,·,·,3
Cc1nnc(SCC(=O)N2c3ccccc3CC2C)[nH]c1=O (centres undefined),·,5,1.6,39,28,·,·,·,·,·
COC(=O)c1ccc(NC(=O)CN(C2CCCCC2)S(C)(=O)=O)cc1,·,3,-0.5,-8,1,·,·,·,·,5
COc1ccc(C(CC(=O)O)n2cnnn2)cc1 (centres undefined),·,-5,-2.4,1,-1,-0.7,18,12,-3.5,-20
C/C=C(\C)C(=O)OC1c2c(ccc3ccc(=O)oc23)OC(C)(C)C1OC(C)=O (centres undefined),·,10,?,-4,-3,·,·,·,·,0
CC1(c2nnc(Cc3ccccc3)o2)CC(c2ccc(OC(F)(F)F)cc2)=NO1 (centres undefined),i,-8,-2.1,-10,3,-2.4,4,6,-3.1,1
CCCn1c(=O)c(C(=O)c2ccccc2)nc2ccccc21,·,3,-0.7,42,10,·,·,·,·,-6
COc1ccc(N(CC(=O)Nc2ccccc2C(=O)N2CCCC2)S(C)(=O)=O)cc1,i,-3,-0.1,4,-1,-5.9,2,10,-0.1,-4
Cc1nnc(NC(=O)CSc2nnc(Cc3cccn3C)n2-c2cccc(C)c2C)s1,·,1,3.9,13,-4,·,·,·,·,-5
Cc1ccc(-n2nc(N)c3c(=O)oc(N(C)C)nc32)cc1,·,13,?,-4,-4,·,·,·,·,-6
Cc1nc(SCCO)c2oc3ccccc3c2n1,·,-23,-0.9,-4,-17,·,0,4,-0.3,4
CN(Cc1ccccc1)C(=O)COC(=O)c1ccc(Cl)cc1N,i,4,-1.5,4,-6,-0.9,-3,3,1.0,-5
CC(NC(=O)c1ccco1)C(=O)O (centres undefined),i,·,·,-2,·,2.9,11,16,1.4,-2
CCCCC(=O)Nc1ccc(Cl)cn1,·,-15,0.5,-9,0,·,·,·,·,0
COc1ccc(-c2cc(=O)[nH]c(=S)[nH]2)cc1,i,5,-1.1,34,-7,-4.1,9,0,7.2,·
COc1ccc(Nc2nc(C(=O)N3CCc4ccccc4C3)cs2)cc1,i,20,-0.7,39,19,6.9,-48,-68,-12,-2
CCCCn1c(N)c(N(CCOC)C(=O)COc2c(C)cccc2C)c(=O)[nH]c1=O,i,-7,4.2,-3,2,-11,9,10,-0.5,-4
CCSc1nnc(NC(=O)Cc2ccc(OC)c(S(=O)(=O)N3CCOCC3)c2)s1,·,-3,5.6,-4,-12,·,·,·,·,-4
CCn1c(CC(=O)Nc2ccc(Cl)cc2)nnc1SCC(=O)N1CCOCC1,i,-13,5.0,·,5,-1.5,12,4,4.1,-6
COc1ccc(OCC(=O)N/N=C/C2CC=CCC2)cc1 (centres undefined),i,-4,·,12,-9,-3.9,15,16,7.7,-12
Cc1ccc(C)c(C(=O)COc2ccc(C)nc2[N+](=O)[O-])c1,·,-4,-1.2,·,-1,·,·,·,·,-5
Cc1nc(/C(=N/O)C(N)=O)cs1,i,-5,-0.3,3,-14,8.8,6,-3,-0.2,-4
N/C(=N\OC(=O)c1cc(-c2ccccc2)nc2ccccc12)c1ccncc1,i,21,6.5,-5,6,3.5,12,7,2.5,8

# Structural class, the compounds so far containing a halogen.
SMILES,FGF22 binding,T cruzi inh,RanGTP-Imp inh,ALR H2O2 inh,Calb FLC,MLL AF4-AF9 inh,Ecoli rRNA inh,Ecoli rRNA inh OD600,Ecoli rRNA inh RFP,Beta cell apopt
CCC/C=C1/CCCOC(C(=O)NCCN2CCOCC2)(C(F)(F)F)C1 (centres undefined),i,0,2.8,-6,-4,-2.8,10,8,11,-15
CCCCn1c(N)c(N(CCOC)C(=O)COc2ccc(Cl)cc2)c(=O)[nH]c1=O,i,-1,-3.7,-10,-10,-1.7,5,13,-5.8,-5
Cc1oc(-c2cccc(Cl)c2)nc1CN(C)C1CCOC1 (centres undefined),i,-8,-9.0,-5,-1,4.2,7,7,1.8,-4
Oc1ccc(Cl)cc1C1=Nc2ccccc2N=C(c2ccco2)C1,i,-8,0.5,11,-1,7.6,-13,-6,-3.3,·
CCN1C(=O)[C@@H]2[C@@H](c3ccc(-c4ccc(Cl)c(Cl)c4)c(OC)c3)N3CCC[C@@]3(C(=O)OC)[C@@H]2C1=O,i,·,·,·,·,2.1,-7,-9,24,-2
Cc1cc(C(F)(F)F)nc(SCC(=O)Nc2c(C)n(C)n(-c3ccccc3)c2=O)n1,i,2,-0.6,-5,-5,-1.4,·,·,·,·
Cc1ccc(S(=O)(=O)N(CC(=O)NCCSCc2ccco2)c2ccc(F)cc2)cc1,·,-8,-0.6,-2,0,·,·,·,·,0
O=C(CCN1C(=O)c2ccccc2S1(=O)=O)NCc1ccc(F)cc1,i,-6,1.1,·,0,-19,4,16,2.0,·
O=C(c1cc2nc(-c3ccccc3)cc(C(F)(F)F)n2n1)N1CCOCC1,i,-12,-1.1,4,2,-1.9,5,5,0.5,-14
O=C(Nc1ccc(Br)cc1)c1cccc(NC(=O)C2C3CC4OC(=O)C2C4C3)c1 (centres undefined),·,3,?,0,24,·,·,·,·,3
CC1(c2nnc(Cc3ccccc3)o2)CC(c2ccc(OC(F)(F)F)cc2)=NO1 (centres undefined),i,-8,-2.1,-10,3,-2.4,4,6,-3.1,1
CN(Cc1ccccc1)C(=O)COC(=O)c1ccc(Cl)cc1N,i,4,-1.5,4,-6,-0.9,-3,3,1.0,-5
CCCCC(=O)Nc1ccc(Cl)cn1,·,-15,0.5,-9,0,·,·,·,·,0
CCn1c(CC(=O)Nc2ccc(Cl)cc2)nnc1SCC(=O)N1CCOCC1,i,-13,5.0,·,5,-1.5,12,4,4.1,-6
